Source: PubChem
HNF4A DNA FP = change in binding of human HNF4A to DNA, primary screen, biochemical, fluorescence polarization, FITC-DNA. 360,000 tested, 0.3% active. Hepatocyte nuclear factor 4-alpha (Homo sapiens), P41235. AID 1224865, 2016. activity change, % at 10 µM. 1 h; in the data active = activity change above about 30%, passing the limit was not always enough;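 also: controls were the assay level and a saturating level of protein; the project sought stronger binding though the title names inhibitors; some compounds called inactive have numbers as strong as hits; positive values seem to mean higher polarization but the record does not say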
Target sequence (P41235 whole entry, looked up): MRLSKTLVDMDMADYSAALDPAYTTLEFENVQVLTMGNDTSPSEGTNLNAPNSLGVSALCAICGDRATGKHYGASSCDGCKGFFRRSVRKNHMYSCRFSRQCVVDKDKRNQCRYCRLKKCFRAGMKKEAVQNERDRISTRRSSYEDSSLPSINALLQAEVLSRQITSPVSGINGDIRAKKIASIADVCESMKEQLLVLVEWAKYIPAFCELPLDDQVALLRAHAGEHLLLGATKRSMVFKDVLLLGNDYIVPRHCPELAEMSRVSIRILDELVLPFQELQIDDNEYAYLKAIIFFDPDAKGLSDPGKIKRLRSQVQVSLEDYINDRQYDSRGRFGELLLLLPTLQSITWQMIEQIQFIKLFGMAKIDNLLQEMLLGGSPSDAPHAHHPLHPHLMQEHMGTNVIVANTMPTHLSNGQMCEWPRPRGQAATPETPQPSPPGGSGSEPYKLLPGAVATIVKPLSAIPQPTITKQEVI
Beta2AR agonist = beta2AR agonists driving receptor internalization, primary screen, cell-based, FAP fluorogen, flow cytometry; Beta-2 adrenergic receptor (Homo sapiens), P07550; Am2.2-beta2AR cells; reference of the scale not given here; response, % (test concentration not listed); 340,000 tested, 0.43% active; AID 504454, 2011;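 active = response above a set limit, near 3 SD of response in nonfluorescent compounds, cut at about 42% in these data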;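 also: stock transfer was 100 nL into about 11 µL; a reference agonist was the positive control; negative values mostly stem from fluorescent compounds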
Target sequence (P07550 whole entry, looked up): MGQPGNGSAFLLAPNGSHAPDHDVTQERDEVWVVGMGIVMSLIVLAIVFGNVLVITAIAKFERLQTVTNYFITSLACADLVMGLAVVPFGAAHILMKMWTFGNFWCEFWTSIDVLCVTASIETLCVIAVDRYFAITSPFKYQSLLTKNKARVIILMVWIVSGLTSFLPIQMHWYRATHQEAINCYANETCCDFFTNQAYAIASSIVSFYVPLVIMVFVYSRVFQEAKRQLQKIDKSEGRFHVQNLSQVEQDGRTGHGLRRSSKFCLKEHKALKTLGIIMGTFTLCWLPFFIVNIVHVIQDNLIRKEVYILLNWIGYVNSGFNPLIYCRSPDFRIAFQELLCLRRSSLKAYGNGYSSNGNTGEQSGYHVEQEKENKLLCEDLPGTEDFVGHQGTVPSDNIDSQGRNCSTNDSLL
UCH37 DUB inh = inhibitors of human UCH37 deubiquitinase, primary screen, biochemical, Ub-AMC cleavage, fluorescence. AID 588478, 2011. inhibition, % (concentration not given with the values). purified proteasome/UCH37. 330,000 tested, 0.33% active;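 active = mean of two replicates above 20%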;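 also: 0% = compound-free wells with enzyme and 100% = wells lacking proteasome; stock transfer was 100 nL into about 20 µL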
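Assay system: Proteasome-bound UCH37. Buffer or medium: pH 7.4 Tris-HCl (50 mM) with ovalbumin, ATP-MgCl2, DTT. Incubation: 30 min preincubation with enzyme, 25 min cleavage at room temperature. Measured by: fluorescence, ex 355 nm, em 460 nm. Read-out basis: percent inhibition. Control set: wells without proteasome as full block, compound-free enzyme plus substrate as uninhibited.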
rRNA inh HTS = reduced GFP signal of wild-type E. coli, primary screen, bacterial rRNA inhibitor project, GFP/RFP fluorescence, OD600, single point. 350,000 tested, 1.6% active. GFP signal change (wild-type ribosome), % (test concentration not listed). AID 720706, 2013. E. coli WT GFP vs humanized-ribosome RFP mutants, 24 h; stronger effect = lower value; DMSO median 0, no signal -100;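 active = significant combined selectivity score with lowered wild-type GFP, culture density cut under 30%, mutant RFP and density less affected; inactive = any of these conditions unmet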; also: one replicate is shown; some compounds called inactive have numbers as strong as hits
FGF22 binding = binders of human FGF22 protein, primary screen, FGF22 synaptogenesis inhibitor project, biophysical, thermal shift, single point. Fibroblast growth factor 22 (Homo sapiens), Q9HCT0. recombinant FGF22 thermal shift, SYPRO orange fluorescence; percent of sucrose octasulfate shift, DMSO zero. calls only at 9.99 µM. 340,000 tested, 1.5% active;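 active = melting point raised past a set limit in the mean and every replicate; three in four hits are not shown here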
Target sequence (Q9HCT0 whole entry, looked up): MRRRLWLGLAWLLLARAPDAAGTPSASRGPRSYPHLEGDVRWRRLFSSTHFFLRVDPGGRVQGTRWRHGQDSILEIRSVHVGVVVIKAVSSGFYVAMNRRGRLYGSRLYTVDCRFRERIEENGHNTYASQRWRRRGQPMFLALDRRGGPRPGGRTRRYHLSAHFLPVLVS
ALR H2O2 inh = inhibitors of human ALR sulfhydryl oxidase, primary screen, biochemical, H2O2 detection, HRP-luminol luminescence, single point. FAD-linked sulfhydryl oxidase ALR (Homo sapiens), P55789. purified ALR, DTT oxidation. inhibition, % (no concentration beside the values). 290,000 tested, 3.8% active. AID 485317, 2010;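 active = mean and each replicate at 75% or more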;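 also: stock transfer was 7.5 nL into about 7.5 µL; 0% = neutral wells and 100% = wells with inactivated enzyme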
Ecoli growth = E. coli growth inhibition, primary screen, OD600. Escherichia coli growth, 23 h; stronger effect = lower value. OD600 absorbance (test concentration not listed). 330,000 tested, 0.21% active. AID 1053175, 2014;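 active = OD600 absorbance below the run mean of sample wells minus 3.6 SD, in any replicate, cut at about 0.56 in these data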;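 also: stock transfer was 300 nL into about 60 µL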
rRNA inh HTS OD600 = further read-out of rRNA inh HTS, marked with its call; OD600 change, %; measured here: OD600 growth;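 optical density of the mix in the first replicate; 0 = DMSO median and -100 = no signal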
rRNA inh HTS RFP = recorded beside rRNA inh HTS, whose call it bears; RFP signal change, %; measured here: RFP humanized mutant strains;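 first replicate; 0 = DMSO median and -100 = no signal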
Numbers without * were called inactive; i = inactive; x = no result given; & = joins results of further samples. Some of the compounds tested; count on the stated rates, not on these rows.

SMILES	HNF4A DNA FP	Beta2AR agonist	UCH37 DUB inh	rRNA inh HTS	rRNA inh HTS OD600	rRNA inh HTS RFP	FGF22 binding	ALR H2O2 inh	Ecoli growth
CN(CC(=O)Nc1cccc(F)c1)C(=O)CNC(=O)Cc1cccc2ccccc12	3.1	-2	3.1	-8	-11	0.1	i	x	0.68
O=C1Nc2ccccc2/C1=N/c1sc2c(c1C(=O)NCCc1ccccc1)CCCC2	5.3	-8	x	x	x	x	x	-17	x
O=c1[nH]c2ccccc2c2oc(CCl)nc12	-0.5	-1	1.0	25	1	-0.6	i	9	0.64
COc1ccc(NC(=O)c2cc(-c3ccncc3)nc3ccccc23)c(OC)c1	3.9	19	2.3	-3	-32	2.7	i	-9	0.71
COc1cc(OC)c(NC(=O)c2ccco2)cc1Cl	-2.2	16	2.7	x	x	x	x	-46	0.69
CCCCn1c(N)c(N(CC(C)C)C(=O)c2cc(-c3ccc(OC)c(OC)c3)nc3ccccc23)c(=O)[nH]c1=O	-1.4	13	-59	-1	16	13	i	x	0.59
CCC(CC)C(=O)N(C)c1c(C)nc2c(OCc3cccc(Cl)c3)cccn12	-1.5	x	x	-28	-65	12	i	x	x
CCOc1cccc(CN2CCCC(N3CCN(c4cccc(Cl)c4)CC3)C2)c1O (stereo not drawn)	-4.0	0	3.2	-18	-19	3.9	i	x	0.66
COCCNC(=O)NC1(C(F)(F)F)Oc2ccc(Cl)cc2O1 (stereo not drawn)	0.3	2	3.8	x	x	x	x	x	0.7
Cc1c(C(=O)OCc2ccc(F)cc2)sc2nc3n(c(=O)c12)CCC3	2.1	4	-7.6	-1	3	-6.9	i	-5	0.59
Cc1cc2nc(-c3ccc(C#N)cc3)c(Cc3ccsc3)n2c(C)c1Br	10	x	x	-6	1	5.5	i	x	x
Cc1ccc(SCc2c(C(=O)N/N=C/c3ccc4c(c3)OCO4)nnn2-c2nonc2N)cc1	0.4	-5	x	-7	2	-1.9	i	-5	x
COc1ccc2c(c1)c(-c1csc(N)n1)c(C)n2C	-0.2	5	1.9	-2	-5	7.7	i	-6	0.67
O=C(O)c1ccc(NC(=S)NCc2ccccc2)cc1	0.6	-3	4.6	4	7	-1.1	i	x	0.67
COCc1c(C(=O)OC)nnn1-c1ccccc1	-2.8	6	1.5	x	x	x	x	-3	0.65
O=C(CSc1cccc[n+]1[O-])Nc1cccc(S(=O)(=O)NC2=NCCCCC2)c1	-0.7	-3	-1.0	4	7	1.8	i	3	0.65
O=S1(=O)CC(N2CCSCC2)CN1Cc1cn(Cc2ccc(Cl)cc2)nn1 (stereo not drawn)	1.8	x	x	-2	-1	-1.4	i	x	x
Cc1cccc(-n2c(SCC(=O)N3CCN(c4ccccn4)CC3)nnc2N2CCOCC2)c1	2.8	8	-0.7	x	x	x	i	0	0.69
COc1ccc(CN2CCN(Cc3ccc(Br)cc3)CC2)c(OC)c1OC	3.1	-8	2.6	3	-4	0.2	i	-30	0.58
CCC(=O)Nc1ccc(NC(=O)c2cccc3ccccc23)cc1	-2.2	1	-1.4	-2	6	1.6	i	x	0.68
Cc1ccc(Oc2ncccc2NC(=O)CC2(CC(=O)O)CCCC2)c2c1CCC2	2.0	-3	0.2	5	-3	0.1	i	-14	0.61
CCOC(=O)c1sc(NC(=O)CCN2CC(C)OC(C)C2)c(C(=O)OCC)c1C (stereo not drawn)	x	x	-1.1	x	x	x	x	-5	0.73
O=C(Cn1ncc2c3ccccc3n(Cc3ccccc3)c2c1=O)NC1CCCC1	0.1	0	-17	-2	4	-0.7	i	-3	0.66
Cc1ccc(S(=O)(=O)CCC(=O)NCCN2C(=O)S/C(=C/c3ccc(F)cc3)C2=O)cc1	4.8	-8	5.2	-12	-20	-10	i	-2	0.67
O=C(Cn1cnc2c(nnn2-c2ccccc2)c1=O)NCC1CCCO1 (stereo not drawn)	-0.7	6	4.9	3	12	-2.9	i	-21	0.77

The last 5 entries of the section before are carried over, then new ones follow.
SMILES	HNF4A DNA FP	Beta2AR agonist	UCH37 DUB inh	rRNA inh HTS	rRNA inh HTS OD600	rRNA inh HTS RFP	FGF22 binding	ALR H2O2 inh	Ecoli growth
Cc1ccc(Oc2ncccc2NC(=O)CC2(CC(=O)O)CCCC2)c2c1CCC2	2.0	-3	0.2	5	-3	0.1	i	-14	0.61
CCOC(=O)c1sc(NC(=O)CCN2CC(C)OC(C)C2)c(C(=O)OCC)c1C (stereo not drawn)	x	x	-1.1	x	x	x	x	-5	0.73
O=C(Cn1ncc2c3ccccc3n(Cc3ccccc3)c2c1=O)NC1CCCC1	0.1	0	-17	-2	4	-0.7	i	-3	0.66
Cc1ccc(S(=O)(=O)CCC(=O)NCCN2C(=O)S/C(=C/c3ccc(F)cc3)C2=O)cc1	4.8	-8	5.2	-12	-20	-10	i	-2	0.67
O=C(Cn1cnc2c(nnn2-c2ccccc2)c1=O)NCC1CCCO1 (stereo not drawn)	-0.7	6	4.9	3	12	-2.9	i	-21	0.77
CC(C)C[C@@H](CN1CCCC1CN1C(=S)NC[C@@H]1Cc1ccc(O)cc1)N1C[C@H](Cc2ccc(O)cc2)N(CCc2ccccc2)C1=S (stereo partly drawn)	3.2	22	x	4	5	8.7	i	x	x
Cc1cc(NC(=O)CCN2CCN(C/C=C/c3ccccc3)CC2)ccc1Br	-0.4	16	2.1	-55	-79	-17	i	-7	0.57
CCOC(=O)CCc1c(C)nc2cc(C3CCCN(C(=O)OC(C)(C)C)C3)[nH]n2c1=O (stereo not drawn)	-2.3	3	-6.3	x	x	x	x	14	0.77
CN(C)S(=O)(=O)c1ccc(C(=O)Nc2nnc(SCC(=O)N3CCOCC3)s2)cc1	3.9	x	x	1	-2	-2.4	i	x	x
COc1ccc(C)cc1-n1nnnc1SCC1CCCO1 (stereo not drawn)	0.5	x	4.7	x	x	x	x	-8	0.76
Cc1ccc2c(c1)N(CCC(=O)NCc1cccnc1)C(=O)CO2	3.1	-3	4.9	x	x	x	x	0	0.73
Cc1cc(OCCOCCNC(C)C)cc(C)c1Cl	1.6	16	-0.5	x	x	x	x	-13	0.68
Cc1cc(SCC(=O)OC(C)C(=O)N(C)c2ccccc2)nc2ccccc12 (stereo not drawn)	1.9	3	3.1	-32	-48	-4.6	i	7	0.65
CC1CCC(NC(=O)CCN2C(=O)C3CC=CCC3C2=O)CC1 (stereo not drawn)	-2.3	1	4.0	4	11	-0.3	i	1	0.72
COc1cc(NC(=S)NCc2cccnc2)cc(OC)c1	1.2	1	1.3	15	10	-0.3	i	-6	0.69
O=C(CCCn1nnc2ccccc2c1=O)N[C@H](C(=O)O)c1ccccc1	-2.0	9	6.2	9	0	-0.9	i	x	0.66
CC1(C(=O)NS(=O)(=O)c2ccc(Cl)cc2)CCN1C(=O)Cc1cccc2ccccc12 (stereo not drawn)	1.2	x	x	-14	-6	7.7	i	x	x
Cc1ccc(S(=O)(=O)N2CCN(C(=O)CCn3cncn3)CC2)cc1C	0.6	3	1.9	9	11	3.4	i	1	0.69
NC(=S)N/N=C1\CCOc2ccc(F)cc21	1.3	8	x	4	8	1.1	i	15	x
O=C(CCN1CCOCC1)N/N=C/c1cc([N+](=O)[O-])ccc1OC(F)F	-0.4	-4	x	13	18	0.8	i	-4	x
COc1ccc(OC(=O)c2ccc(OC)c(S(=O)(=O)N3CCOCC3)c2)cc1	1.8	8	-2.3	2	5	-2.5	i	-5	0.72
CCOC(=O)C1=NN(N=O)C2(CC(=O)N(c3cc(C)cc(C)c3)C2=O)C1 (stereo not drawn)	2.7	29	3.8	x	x	x	x	1	0.7
C[C@H](CO)N1C[C@H](C)[C@H](CN(C)C(=O)c2ccccc2F)Oc2ncc(Br)cc2C1=O	3.1	x	x	8&4	17&-5	7.3&-1.2	i	x	x
CCCc1cc(C(=O)N2CCCC(C(=O)c3cc(C)c(OC)c(C)c3)C2)n(C)n1 (stereo not drawn)	0.8	16	4.4	-15	-24	0.4	i	-71	0.67
COC(=O)C1=C(NC(=O)c2ccccc2[N+](=O)[O-])CCS1	4.6	2	6.5	2	7	-3.3	i	-4	0.66
NC(=O)c1nn(-c2ccccc2)nc1NC(=O)CN1CCCC1	0.3	-3	-8.3	11	5	-9.2	i	-17	0.67
O=C(CSc1nc2ccccc2o1)Nc1ccc(N2CCOCC2)c(Cl)c1	-1.3	2	-1.5	x	x	x	x	-42	0.56
Cc1ccc(-n2nnnc2SCC(=O)Nc2ccc3c(c2)COC3=O)cc1C	4.1	3	-0.6	x	x	x	x	-2	0.73
COc1ccc2[nH]c3c(c2c1)CCN1C(=O)C(CC(=O)NC/C=C(\C)CCC=C(C)C)C[C@H](C(=O)N(C(C)C)C(C)C)[C@@]31C (stereo partly drawn)	-0.7	-7	-1.0	9	14	0.6	i	x	0.71
COC(=O)C1CCN(C(=O)COC(=O)/C=C/c2ccc(O)c(OC)c2)CC1	0.9	10	-8.4	4	-3	-1.1	i	x	0.68
Further entries.
SMILES	HNF4A DNA FP	Beta2AR agonist	UCH37 DUB inh	rRNA inh HTS	rRNA inh HTS OD600	rRNA inh HTS RFP	FGF22 binding	ALR H2O2 inh	Ecoli growth
Cc1ccc(C)c(NC(=O)c2cc(S(=O)(=O)N3CCCCC3)ccc2N2CCOCC2)c1	2.3	0	2.4	-7	-12	-4.7	x	x	0.69
COc1ccc(-c2ccc(N3C(c4cc(OC)cc(OC)c4)=Cc4ccc(OC)cc4C3CC(C)=O)cc2)cc1 (stereo not drawn)	6.7	x	x	4	15	7.8	i	x	x
COC(=O)c1ccc(NC(=O)c2cccc(N3C(=O)CCC3=O)c2)cc1	0.3	-1	2.5	2	8	-1.9	i	x	0.69
O=C(COC(=O)c1ccco1)NCc1cccs1	-1.8	1	5.6	x	x	x	x	-4	0.69
CCOc1ccccc1C(=O)Nc1ccsc1C(=O)OC	-3.6	-15	2.0	x	x	x	x	-4	0.67
COc1ccc(C(=O)NC(=S)NC(C)c2ccccc2)cc1 (stereo not drawn)	0.0	-2	-0.8	-32*	-21*	-0.9*	i	-3	0.65
O=C(NC(c1ccccc1)c1ccsc1)C1CCN(Cc2ccc(Oc3ccccc3)cc2)CC1 (stereo not drawn)	-3.0	x	x	-24	-35	21	i	x	x
COc1cc(C)c(COc2ncnc3ccccc23)cc1OC	-6.2	-5	0.6	2	-3	0.9	i	-2	0.72
CCOc1ccc2nc(SC(CC)C(=O)Nc3cc(C)on3)sc2c1 (stereo not drawn)	-3.0	-3	4.3	11	20	-0.9	x	-7	0.71
COc1ccc(C2=NN(C3=NN=C(N)Cc4ncnn43)C(O)(C(F)(F)F)C2)cc1 (stereo not drawn)	-2.8	2	-30	9	5	-2.3	i	-1	0.65
C=CCNC(=O)c1onc(CSc2ccc(F)cc2)c1C(=O)O	0.8	3	6.2	1	0	9.1	i	-2	0.69
COc1ccc(-n2nnnc2SCC(=O)c2ccc3c(c2)OCCO3)c(OC)c1	-4.8	-14	0.8	8	5	-1.2	i	-6	0.64
Cc1cc(C(=O)O)ccc1-n1c(C)cc(/C=C2\SC(=O)NC2=O)c1C	-4.7	0	7.5	-7	-9	1.0	x	54	0.73
O=c1ccccn1CCOc1ccc(Cl)cc1	2.5	-2	3.9	7	4	-0.6	i	3	0.62
